VDR inh – blocks the human vitamin D receptor | actives 0.93% (n = 400,000) | AID 504847 | P11473 | Potency, µM, inactives show max response, negative = inhibition, actives largely listed as inhibitors | VDR-SRC2-3 peptide fluorescence polarization, 2 h; active = well fitted inhibition curve with a large enough effect; inconclusive = small, poorly fitted or top-dose-only effect, or another doubt; inactive = no such curve, though single readings can be large or run the other way; note: series mostly up to about 120 µM
Target sequence (P11473 whole entry, looked up): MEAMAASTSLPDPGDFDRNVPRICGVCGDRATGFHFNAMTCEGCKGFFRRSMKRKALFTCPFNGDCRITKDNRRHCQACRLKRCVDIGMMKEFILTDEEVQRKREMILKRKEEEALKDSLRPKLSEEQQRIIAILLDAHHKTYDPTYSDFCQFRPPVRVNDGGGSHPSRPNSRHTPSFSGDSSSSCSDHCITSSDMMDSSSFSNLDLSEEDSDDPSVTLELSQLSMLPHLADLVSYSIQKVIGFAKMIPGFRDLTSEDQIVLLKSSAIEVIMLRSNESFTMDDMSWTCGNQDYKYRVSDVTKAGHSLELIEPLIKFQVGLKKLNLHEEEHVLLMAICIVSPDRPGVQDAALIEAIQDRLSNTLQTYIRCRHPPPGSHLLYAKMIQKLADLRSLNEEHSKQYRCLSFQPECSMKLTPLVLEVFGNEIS
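Fluorescence polarization assay measuring small-molecule disruption of VDR binding to the coregulator peptide SRC2-3. Compounds were pin-transferred (23 nl) into the reagent mix and incubated 2 h at room temperature before reading.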
An asterisk follows results filed as active; ? = inconclusive; & = joins results of further samples. % is set by controls: 0 for no effect and ±100 for the full control effect; potency is the fitted concentration of half-maximal effect. These rows are one share of the data, so the mix of outcomes need not match the whole.

SMILES	VDR inh
CNc1cc(-n2nc(C)cc2-c2ccccc2)ncn1	12%
C=C1CCC[C@]2(C)C[C@H]3OC(=O)C(CN4CCCCC4CO)[C@H]3CC12 (stereo partly drawn)	?
CCCN(CC(=O)Nc1ccccc1OC)C(=O)Cc1ccc2c(c1)CCC2	?
COc1cc(C(=O)NCc2ccc(C)cc2)ccc1OC(F)F	-14%
Fc1ccc(CNC(=S)Nc2cccc(Cl)c2)cc1	-8%
COc1cc(CC(=O)OC2CCOC2=O)cc(OC)c1OC (stereo not drawn)	-4%
COc1cccc(/C=N/n2c(N)c(S(=O)(=O)c3cccs3)c3nc4ccccc4nc32)c1OC	0%
COc1ccccc1NC(=O)c1cccc(NC(=O)c2ccco2)c1	4%
CC(C)Cn1c(N)c(C(=O)CSc2nnnn2-c2ccc(Cl)cc2)c(=O)n(C)c1=O	-12%
CCC(C)(C)NC(=O)C(c1ccccc1Cl)N(C(=O)CCC(=O)Nc1cc(C)on1)C1CC1 (stereo not drawn)	-10%
Cc1ccc(OCC(=O)N(Cc2ccc(C)o2)C2CCS(=O)(=O)C2)cc1 (stereo not drawn)	?
CCOC(=O)C1=C2SCC(=O)N2C(N)=C(C#N)C1	-4%
COc1ccc(N2CCN(S(=O)(=O)CCNC(=O)COc3ccccc3F)CC2)cc1	5%
O=S(=O)(c1ccc(F)cc1)N1CCN(Cc2cc3c(cc2Br)OCCO3)CC1	4%
COC(=O)C1=C(C)N(CCCCCC(=O)O)C(=O)NC1c1ccccc1 (stereo not drawn)	7%&-15%
CCNc1ncc2ncc(=O)n(Cc3cccs3)c2n1	-14%
CN(C)c1ccc(C=c2c3cc([N+](=O)[O-])ccc3n3c2cc(-c2ccccc2)[n+]3C)cc1	?
CN(CC(=O)Nc1ccccc1Br)C(=O)c1cc(Cl)nc2ccccc12	12%
Cc1ccc(NC(=S)Nc2ccccn2)cc1C	-5%
O=C1CC(N2CCN(c3ccc(S(=O)(=O)N4CCOCC4)cc3)CC2)C(=O)N1Cc1ccccc1 (stereo not drawn)	-18%
CCOc1ccc(S(=O)(=O)N(C)c2ccc(OCC(=O)N3c4ccc(C)cc4C4CN(C)CCC43)cc2)cc1 (stereo not drawn)	1%
O=c1cc(N2CCc3ccccc3C2)[nH]c(=O)n1-c1ccc(Cl)cc1	22%
COc1ccc(C)cc1NC(=O)C1CCN(S(=O)(=O)c2c(C)noc2C)CC1	8%
COC(=O)c1c(C)[nH]c(C(=O)C(C)OC(=O)c2cnc(C)cn2)c1C (stereo not drawn)	-22%
Cc1ccc(-c2cc(C(=O)NCCN3CCOCC3)no2)cc1	2%
COc1ccc(OC)c(S(=O)(=O)Nc2cc3c4c(c2)CC(=O)N4CCC3)c1	-4%
Cc1cc(C(F)F)n2ncc(C(=O)NCCc3ccccc3Cl)c2n1	-9%
Cn1c(=O)c2c(ncn2CC(=O)OCC(=O)NNC(=O)c2ccc(Cl)cc2)n(C)c1=O	-14%
COCCn1c(=O)[nH]c2cc(C(=O)N3CCN(c4ccc(OC)cc4)CC3)ccc2c1=O	-5%
O=C(Cc1ccccc1)NCC(=O)N1CCN(c2ccccc2F)CC1	8%
CCS(=O)(=O)N1CCC(c2nc(-c3ccc(C)cc3)no2)CC1	-3%
Cc1noc(C)c1C(=O)OCC(=O)NC1CC1	-4%
CCC1=[N+](C)c2cccc3cccc(c23)N1C	0%
O=C(c1ccc2oc(CCCc3ccccc3)nc2c1)N1CCCC(CCCO)C1 (stereo not drawn)	-2%
Nc1nnnn1/N=C/C(Br)=C/c1ccccc1	?
O=C(N1CCN(c2ccccc2F)CC1)C1(S(=O)(=O)c2ccc(Cl)cc2)CC1	-4%
CN(CC(=O)Nc1ccc2c(c1)OCCO2)S(=O)(=O)c1ccc(F)cc1	2%
CC(C)(C#CCN1CCCCC1)OCCOC(c1ccccc1)c1ccccc1	0%
CCOc1cc(C2CC(=O)N3CN(C4CCCCC4)CSC3=C2C#N)ccc1O (stereo not drawn)	?
O=c1c(N2CCN(c3cccc(Cl)c3)CC2)csc2ccccc12	14%
COc1ccc(CNC(=O)CCCNS(=O)(=O)c2cccc3nonc23)cc1	-4%
O=C(Nc1cccc(C(F)(F)F)c1)c1ccc(F)c(S(=O)(=O)N2CCc3ccccc3C2)c1	6%
CCOC(=O)C1=C(COC(=O)c2ccc(C)c(S(=O)(=O)N3CCOCC3)c2)NC(=O)NC1C (stereo not drawn)	-18%
COc1ccc(NC(=O)c2cc3sccc3n2Cc2ccc(F)cc2)cc1OC	15%
CC/C=C/C(=O)N1CC2(CC(c3cccc(NC(=O)CC)c3)=NO2)C[C@H]1C(N)=O (stereo partly drawn)	-4%
CCOc1ccc(C(=O)N2CCCC2)cc1OC	6%
CCC1=C(OC(=O)N(CC)CC)N2C(=O)OC(=NCCc3c[nH]c4ccccc34)[C@]2(Cc2ccccc2)[C@H]2C1=CC[C@H]1C(=O)N(c3ccccc3)C(=O)[C@H]12	-16%
O=S(=O)(Cc1noc(-c2ccc(OC(F)(F)F)cc2)n1)c1ccc(F)cc1	0%
CCOC(=O)c1c(C)[nH]c(C(=O)OCC(=O)N(C)c2c(N)n(Cc3ccccc3)c(=O)[nH]c2=O)c1C	0%
CCOC(=O)c1[nH]c(C)c(C(=O)Nc2ccc(C)cc2C)c1C	-15%

(cont.)
SMILES	VDR inh
O=C1Cc2ccccc2C(=O)N1OCc1ccc(Cl)cc1	-1%
O=C(c1ccccc1)N1CCN(C(=O)c2ccc3c(c2)OCCO3)CC1	-6%
CC(NC(=O)C12CC3(C)CC(C)(CC(C)(C3)C1)C2)C(=O)O (stereo not drawn)	1%
CC1CCc2nc(NC(=O)c3ccco3)sc2C1 (stereo not drawn)	-12%
CC(C)(C)OC(=O)N1CCC(C(=O)Nc2cccc(C(=O)NCCCc3ccccc3)c2)CC1	9%
NC(=O)c1cc2ccc(O)cc2oc1=NCc1ccccc1	-14%
Cc1cc(CNC(=O)C2(C(F)(F)F)C/C(=C\Cc3ccccc3)CCCO2)nn1C (stereo not drawn)	6%&6%
Brc1ccc(-c2noc3c2-c2nc(C4CCCCC4)sc2CC3)cc1	-7%
CCN(Cc1ccccc1)C(=O)COc1cc(=O)n(CC)c2ccccc12	-4%
O=C(c1cc(Cl)ccc1OCc1ccccc1)N1CCOCC1	-3%
CCC1=Nc2cc(C(=O)NCc3ccco3)ccc2Sc2ccc(Cl)cc21	-6%
O=C(CCC1CCCCC1)NCc1cccs1	-7%
O=S(=O)(NCC1CN(S(=O)(=O)c2c(F)cccc2F)C1)c1ccc2c(c1)OCCO2	-13%
COC(=O)C1CCN(S(C)(=O)=O)CC1	-6%
COc1ccc(C)cc1S(=O)(=O)N1CCC(C(=O)NCCC2=CCCCC2)CC1	12%
CCC(=O)N1CCc2cc(Br)cc(S(=O)(=O)CCC(=O)NCCc3ccc(OC)c(OC)c3)c21	8%
OCCN(Cc1ccccc1)Cc1ncccc1O	-3%
NC(N)=Nc1nc2ccc(Br)cc2c(=O)[nH]1	-5%
OC1(c2cccs2)CN(c2ccc(Br)cc2)C2=[N+]1CCCS2 (stereo not drawn)	-4%
COc1ccc(CCNC(=O)c2cc3ccccn3n2)c(OC)c1OC	-4%

14 entries from above, sorted by number of heavy atoms, falling:
SMILES	VDR inh
CCC(=O)N1CCc2cc(Br)cc(S(=O)(=O)CCC(=O)NCCc3ccc(OC)c(OC)c3)c21	8%
O=S(=O)(NCC1CN(S(=O)(=O)c2c(F)cccc2F)C1)c1ccc2c(c1)OCCO2	-13%
COc1ccc(C)cc1S(=O)(=O)N1CCC(C(=O)NCCC2=CCCCC2)CC1	12%
CCC1=Nc2cc(C(=O)NCc3ccco3)ccc2Sc2ccc(Cl)cc21	-6%
COc1ccc(CCNC(=O)c2cc3ccccn3n2)c(OC)c1OC	-4%
Brc1ccc(-c2noc3c2-c2nc(C4CCCCC4)sc2CC3)cc1	-7%
O=C(c1cc(Cl)ccc1OCc1ccccc1)N1CCOCC1	-3%
NC(=O)c1cc2ccc(O)cc2oc1=NCc1ccccc1	-14%
CC(NC(=O)C12CC3(C)CC(C)(CC(C)(C3)C1)C2)C(=O)O (stereo not drawn)	1%
OCCN(Cc1ccccc1)Cc1ncccc1O	-3%
CC1CCc2nc(NC(=O)c3ccco3)sc2C1 (stereo not drawn)	-12%
O=C(CCC1CCCCC1)NCc1cccs1	-7%
NC(N)=Nc1nc2ccc(Br)cc2c(=O)[nH]1	-5%
COC(=O)C1CCN(S(C)(=O)=O)CC1	-6%

The results go on:
SMILES	VDR inh
COCCNc1ncnc2c1cnn2-c1ccc(Cl)cc1	-9%
CCOC(=O)N1CCN(c2nnc(-c3ccc(C)cc3)c3ccccc23)CC1	3%
CCCc1nnc(SCC(=O)Nc2ccc3c(c2)OCCO3)n1CCOC	-20%
O=C(CN1C(=O)C2CC=CCC2C1=O)Nc1ccc(S(=O)(=O)Nc2ncccn2)cc1 (stereo not drawn)	-3%
Cc1nc(C)n(CC(=O)c2ccc(Cl)cc2Cl)n1	5%
CCCc1[nH]n(-c2ccc(F)cc2)c(=O)c1C=Nc1ccc(C)cc1	-19%
CC(=O)N1CCCc2cc(S(=O)(=O)N3CCCC(C(=O)Nc4ccc(C)cc4C)C3)ccc21 (stereo not drawn)	-11%&4%
Cc1[nH]c2ccc(F)cc2c1CCN(Cc1ccncc1)C(=S)Nc1ccc(F)cc1	-2%
Cc1cc(N2CCCCCC2)n2nc(C)c(-c3ccccc3)c2n1	2%
Cc1ccc(NC(=O)CN2C(=O)COc3ccc(S(=O)(=O)N4CCCC4)cc32)c(C)c1	8%
CCN(CC)S(=O)(=O)c1ccc(N2CCOCC2)c(NC(=O)CC23CC4CC(CC(Br)(C4)C2)C3)c1	5%
CN1c2ccccc2C(O)=C(C(=O)Nc2ccccc2)S1(=O)=O	-6%
CCN(C(=O)c1cn(-c2ccc(OC)cc2)c(=O)c2ccccc12)c1cccc(Cl)c1	-4%
O=C(O)CCCn1cc(NC(=O)COc2ccc(F)cc2F)cn1	8%
CC(C)(C)OC(=O)C[C@H]1C/C=C\C[C@H](CC(=O)N(CCO)Cc2ccccc2)C(=O)NCCOC1=O	-5%
COc1ccc(C(=O)c2sc3nc(-c4ccc(F)cc4)ccc3c2N)cc1	-9%
CCc1ccc(CNC(=O)c2cc3n(n2)CCCN(Cc2ccccc2)C3=O)cc1	-2%
CNC(=O)/C(C#N)=c1\s/c(=C/C(=O)OC)c(=O)n1-c1ccccc1	1%
CCOC(=O)c1sc(NC(=O)CN2C(=O)NC3(CC(C)CC(C)(C)C3)C2=O)c(C(=O)OCC)c1C (stereo not drawn)	-12%
Cc1cc(C#N)c(C)c(SCc2[nH]nc3c2C(c2ccccc2)C(C#N)=C(N)O3)n1 (stereo not drawn)	8%
CC(=O)N[C@@H](CC(=O)N[C@H](CCC(=O)O)C(=O)O)C(=O)O	-17%
CC1CCN(C(=S)c2ccc3c(c2)OCO3)CC1	8%
O=C(COC(=O)CSc1nnc(-c2ccc(Cl)cc2)o1)NCc1ccc2c(c1)OCO2	2%
COc1ccc(NC(=O)c2cc(-c3ccc(C)o3)nc3ccccc23)c(OC)c1	-6%
Cc1ccc(Nc2ncnc3c2oc2ccccc23)cc1	-14%
COc1ccccc1C(=O)NNC(=S)NC(=O)c1cc(OC)c(OC)c(OC)c1	-5%
O=C1C=C(c2ccc3[nH]ccc3c2)C[C@@H](c2ccc(Cl)cc2)C1	0%
Cc1cccc(C)c1NCc1n[nH]c(=S)n1-c1ccccc1	-16%
O=C(CSc1ncnc2c1oc1ccccc12)c1cccs1	18%
CC(=O)c1ccc(OCCCC(=O)NC2CCC(C)CC2)cc1 (stereo not drawn)	9%
CN(C)c1ccc(CN2CCc3nc(N4CCN(c5ccccn5)CC4)ncc3C2)cc1	14%
CCOc1ccc2nc(N3CCCN(C(=O)Nc4ccccc4C)CC3)c(C#N)cc2c1	11%
Cc1cc2nnc(SCC(=O)NC3CCCCC3)n2c(N)n1	9%
CSC1=N/C(=C\c2ccccc2F)C(=O)S1	-9%
CC(=O)N1c2ccc(S(=O)(=O)NCC3CCC(C(=O)N4CC(C)CC(C)C4)CC3)cc2CC1C (stereo not drawn)	-10%
Cc1ccc(NC(=O)C(C)N=C2NS(=O)(=O)c3ccccc32)cc1 (stereo not drawn)	-13%
CCCCC(=O)N1CCN(c2nc3ccc(OCC)cc3s2)CC1	1%
O=C1/C(=C/c2ccc(F)cc2)Oc2cc(OC(=O)N3CCOCC3)ccc21	-7%
Cc1nc(SCC(=O)N2CCc3ccccc32)n[nH]1	5%
O=C(CCc1nnc2ccc(NCc3ccccc3)nn12)NC1CCCCC1	-13%

Quoted from the listing.
Under VDR inh, `Cc1ccc(NC(=O)C(C)N=C2NS(=O)(=O)c3ccccc32)cc1` (stereo not drawn) has the entry -13%
Under VDR inh, `CCOc1ccc2nc(N3CCCN(C(=O)Nc4ccccc4C)CC3)c(C#N)cc2c1` has the entry 11%

Continuation.
SMILES	VDR inh
CCN(CC(=O)Nc1ccc(NC(C)=O)cc1)C(=O)c1cccc2ccccc12	8%
O=C(NCc1ccc(F)cc1)C1CCN(S(=O)(=O)N2CCC3(CC2)OCCO3)CC1	9%
Cn1cc(CNCc2cnc3ccccn23)c(-c2ccc(Oc3ccccc3)cc2)n1	8%
COc1ccc(C(=O)Nc2ccnn2C2CCN(C3CCC3)CC2)cc1	-4%
O=C(NC(Nc1nc2ccc([N+](=O)[O-])cc2s1)(C(F)(F)F)C(F)(F)F)c1ccccc1Cl	2%
CCN1CCN(CCNC(=O)c2ccc(CS(=O)(=O)c3ccccc3C)o2)CC1	6%
CC(C)(C)NS(=O)(=O)c1ccc(OCC(=O)NCCC2=CCCCC2)cc1	-3%
O=C(Cc1ccccc1F)Nc1ccc2c(c1)CCC2	-16%
O=C(O)CCc1ccc(-c2cccs2)n1CCc1ccccc1	-2%
O=S(=O)(c1cccc(C(F)(F)F)c1)N1CCN(CC(O)COCc2ccccc2)CC1 (stereo not drawn)	7%
CCn1c(SCC(=O)NC2CCCC2)nnc1C(C)C	-3%
Cc1cc(C)c(OCCOCCN2CCNCC2)c(C)c1	7%
Cc1ccc2c(CN(C)Cc3ccc(Cl)cc3Cl)cc(=O)oc2c1	-13%

Source: PubChem
